CDC25B CDK2 inh: human CDC25B-CDK2/CyclinA binding inhibition; HTRF CDC25B-CDK2/CyclinA binding, anti-His/anti-Flag; stronger effect = higher value; 94,000 tested, 0.72% active; AID 1259370; P30305+P24941; z-score (no concentration beside the values);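 also: score is relative to mean and SD of negative controls; strong numbers were not always called active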
TAR Tat displ: HIV-1 TAR-Tat binding disruption | HIV-1 TAR RNA, Tat peptide displacement FRET; stronger effect = higher value | z-score (test concentration not listed) | 100,000 tested, 0.6% active | AID 1259389;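 also: score is relative to mean and SD of negative controls; some compounds called inactive have numbers as strong as hits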
Starred values were filed as active, the others as inactive; / = no result given.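 The calls were made as follows: active = z-score from 3 up in half or more of its runs; inactive = the rest.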

| SMILES | CDC25B CDK2 inh | TAR Tat displ |
| --- | --- | --- |
| O=C(OCCN(C1=NS(=O)(=O)c2ccccc21)c1ccccc1)c1cccs1 | -0.49 | 0.53 |
| CCOc1cc(/C=C2\C=C(c3ccc(Cl)cc3)OC2=O)ccc1OC(C)=O | -2.2 | / |
| CCOC(=O)/C(C#N)=C/c1ccc(OC)c(OC)c1 | -0.89 | / |
| O=C(COc1ccccc1)Nc1noc(-c2cccs2)n1 | -1.3 | 1.1 |
| COc1ccc(Cl)cc1NS(=O)(=O)c1ccc2c(c1)CC(C)N2C(=O)C1CCC1 (configuration not stated) | / | 0.73 |
| CC(=O)N1c2ccc(S(=O)(=O)N(C)CC(=O)Nc3cccnc3)cc2CC1C (configuration not stated) | / | -0.11 |
| CCNC(=O)CCCN1C(=O)CCn2nc(-c3cccn3C)cc21 | / | 0.01 |
| Cn1cccc1-c1cc2n(n1)CCCN2C(=O)CCC(=O)O | 0.65 | -2.1 |
| CC1(C)CC(=O)C2=C(C1)Nc1ccccc1N(C(=O)Cc1ccccc1)C2c1cccnc1 (configuration not stated) | 1.1 | / |
| O=C(Cn1cnc2onc(-c3ccc(Cl)cc3)c2c1=O)N1CCN(C(=O)c2ccco2)CC1 | -1.5 | 1.4 |
| CC1Cc2cc(S(=O)(=O)N(C)C3CCCCC3)ccc2N1C(=O)C1CCC1 (configuration not stated) | / | -0.78 |
| COc1ccc(OS(=O)(=O)c2sc(Br)cc2Br)cc1 | -0.76 | / |
| CSc1nnc2c(n1)OC(c1cccc(F)c1)N(C(C)=O)c1ccccc1-2 (configuration not stated) | -1.2 | -0.07 |
| O=S(=O)(O)c1ccc(O)c2ncccc12 | 0.56 | / |
| CC1=C(C(N)=O)C(c2ccc(O)cc2)n2nc(CCCO)nc2N1 (configuration not stated) | -1.3 | / |
| O=C(O)c1cccc(NC(=O)c2ccc(CSc3ccc(Br)cc3)cc2)c1 | -3.5 | / |
| Fc1ccc(Nc2nc3ccccc3n3nnnc23)c(Cl)c1 | -0.08 | -0.61 |
| Cc1cc2c3c([nH]c2cc1S(=O)(=O)N1CCCCC1)CC(C)(C)CC3=O | / | -1 |
| Cc1nc2nc(C)n(-c3ccccc3)c2s1 | -1.2 | -2 |
| Cc1nn(S(=O)(=O)c2ccc(F)cc2)c(C)c1S(=O)(=O)N(C)c1ccccc1 | / | -0.3 |
| O=c1c(-c2ccccc2)coc2cc(O)cc(O)c12 | / | 2.4 |
| O=C(CCN1C(=O)C2C3C=CC(CC3)C2C1=O)N1CCN(c2ncccn2)CC1 (configuration not stated) | -0.49 | / |
| CN1CCN(c2nc3ccccc3n3cnnc23)CC1 | -2.2 | -0.79 |
| Cc1ccc(-c2nc(CN3N=NC4C(=O)N(c5ccc(Cl)cc5)C(=O)C43)c(C)o2)cc1 (configuration not stated) | / | 0.58 |
| Cc1ccc(C(CNC(=O)c2sc3cc(Cl)ccc3c2Cl)N(C)C)o1 (configuration not stated) | -0.96 | 0.16 |
| CCOC(=O)c1sc2ccccc2c1S(=O)(=O)NCc1cccs1 | / | -1.9 |
| C=CCN1C(=O)C(O)(CC(=O)c2cccs2)c2cc(Br)ccc21 (configuration not stated) | 0.07 | 4.3 |
| O=C(NCC1CCCO1)C1=Cc2ccccc2OC=C1 (configuration not stated) | -1.4 | -1.4 |
| COc1ccc(/C=C2\COc3ccc(C)cc3C2=O)cc1O | -0.85 | / |
| CC(C)Cn1c(=O)c(C#N)cc2c(=O)n3ccccc3nc21 | -0.13 | 2.3 |
| COCCN(Cc1ccc(Cl)cc1)Cc1cc(=O)c2cc(C)ccc2[nH]1 | / | 0.94 |
| Cc1nnc2c3ccccc3nc(NCc3ccccn3)n12 | / | 0.98 |
| CCN(CC)CCCN1C(=O)c2cc3sccc3n2CC1(C)C(=O)NC1CCC(C)CC1 (configuration not stated) | -1.1 | 0.99 |
| CN(C)CCNc1ncnc2c1c(-c1ccccc1)cn2-c1cccc(Cl)c1 | -1.3 | -1 |
| O=C1c2cccc3cccc(c23)C(=O)N1CCCO | -2.1 | / |
| O=C(NCc1ccco1)C1CCC(CNS(=O)(=O)c2cccc3nsnc23)CC1 (configuration not stated) | -1.7 | -0.66 |
| COC(=O)c1cc(N=NC2=C(O)CC(C)(C)CC2=O)cc(C(=O)OC)c1 | -3.1 | / |
| COc1cccc(CN2CCN(Cc3ccccc3F)S2(=O)=O)c1 | / | -0.72 |
| Cc1ccccc1-c1nc(-c2ccncc2)no1 | 0.08 | 0.21 |
| CC(C)(C)c1ccc(S(=O)(=O)c2c[nH]c3ccc(F)cc3c2=O)cc1 | -1.1 | -0.91 |
| CC(C)NC(=O)NCc1ccc2ncccc2c1 | / | -1.1 |
| CC(=O)N1N=C(c2cc(C3CC3)nc3ccccc23)OC1c1ccc(F)cc1 (configuration not stated) | / | 22* |
| Cc1ccc(C)c(-c2nc(CSc3nc4ncccc4o3)c(C)o2)c1 | / | 0.2 |
| O=C(NCCCN1CCCC1=O)C1CCN(c2nc3cccnc3s2)CC1 | / | 1.3 |
| CCC1(CC)Cc2ccccc2-c2nc(CN(C)C)[nH]c(=O)c21 | -2 | 1.4 |
| Cc1cc2oc(C(=O)Nc3nc4ccc(S(C)(=O)=O)cc4s3)cc(=O)c2cc1C | -0.86 | 1.2 |
| Fc1ccc(-c2nnc3sc(COc4ccccc4)nn23)cc1 | 0.54 | 2.2 |
| CC(C)C1CCC(C(=O)N[C@@H](Cc2ccccc2)C(=O)O)CC1 (some centres not stated) | / | -0.72 |
| O=c1cnnc(Nc2ccc3c(c2)OCCO3)[nH]1 | -1.3 | 2 |
| O=C1CCCC2=C1C(c1ccc3c(c1)OCO3)c1c([nH]n(-c3ccccc3)c1=O)N2 (configuration not stated) | -2.9 | -0.26 |
| Cc1ccc2nc(NCc3ccccc3)c3nncn3c2c1 | -1.3 | 1.1 |
| CC1Cc2nc(SCC(=O)N3CCCC3)n(-c3ccccc3)c(=O)c2S1 (configuration not stated) | -2.5 | 0.75 |
| CCCN1CN(Cc2ccco2)c2nc3ccccc3n2C1 | -0.77 | 1.2 |
| Cc1ccc(CN2C(=O)C(O)(c3c[nH]c4ccccc34)c3cc(Br)ccc32)c(C)c1 (configuration not stated) | 0.89 | -1.8 |
| Cc1nnc(SCC(=O)Nc2sc3c(c2C(=O)OC(C)C)CCCC3)s1 | -1.6 | -0.24 |
| CCN1CCN(c2ncc3c(n2)CCN(Cc2ccc4c(c2)OCCO4)C3)CC1 | / | 1.5 |
| O=C(C1CCCN1c1nnc(N2CCCC2=O)s1)N1CCCC1 (configuration not stated) | -1 | 2.1 |
| Cn1cc(C(=O)NC2CCCCCCC2)c(=O)c2cc(S(=O)(=O)N3CCCCCC3)ccc21 | 0.37 | / |
| CCCN(Cc1cccs1)C(=O)Nc1cc(C)cc(C)c1 | 0.09 | -0.56 |
| Cc1ccc(-n2c(=O)c(C#N)cc3c(=O)n4cccc(C)c4nc32)c(C)c1 | -2.1 | 0.58 |

Additional results follow.
| SMILES | CDC25B CDK2 inh | TAR Tat displ |
| --- | --- | --- |
| COC(=O)c1cc(/C=N/NC(N)=O)cn1C | -0.32 | / |
| CCSc1nc2c(cc1C#N)CCC2 | -1.2 | 1.6 |
| CCc1cc(=O)oc2cc(C)c3c(C)coc3c12 | -0.7 | / |
| CCc1nnc2c(NCCCN3CCCCC3CC)nc3ccccc3n12 (configuration not stated) | / | -1.1 |
| O=C(NC1CCCc2ccccc21)c1cnc2sccn2c1=O (configuration not stated) | / | 1 |
| CC1CCN(C(=O)C2CCN(c3nc(-c4ccc(C(C)C)cc4)no3)CC2)CC1 | / | -0.36 |
| CCOc1ccc2ncc(S(=O)(=O)c3ccccc3)c(N3CCN(CC)CC3)c2c1 | -1.2 | -3 |
| O=C1COc2ccc(-c3cc(-c4ccccc4)c4c(n3)-c3ccccc3OC4)cc2N1 | -1.4 | 0.58 |
| COc1ccc(S(=O)(=O)N2CCN(c3cc(N(C)C)nc(C)n3)CC2)cc1OC | 1.2 | 1.1 |
| COC(=O)c1nnn(-c2ccc(OC)cc2OC)c1C(=O)OC | 0.66 | 0.48 |
| Cc1noc2ncn(CC(=O)NCC3CCCO3)c(=O)c12 (configuration not stated) | / | 0.13 |
| CC1Cc2nc(SCC(=O)Nc3nccs3)n(-c3ccccc3)c(=O)c2S1 (configuration not stated) | -1.5 | 1.9 |
| COc1ccc(-n2ncc(C(=O)N3CCN(C4c5ccccc5-c5ccccc54)CC3)c2C)cc1 | -1.1 | / |
| CC1CCC(C)N(C(=O)c2cc3n(n2)C(C(F)(F)F)CC(c2ccco2)N3)C1 (configuration not stated) | -1.1 | 2.7 |
| CN(CCNC(=O)c1cc2c(-c3ccccc3F)nn(C)c2s1)Cc1ccccc1 | -1.8 | / |
| Cc1ccc(C(=O)N2CCCN(c3ccc(C(F)(F)F)cn3)CC2)cc1C | 0.45 | / |
| COC(=O)c1ccc(CSc2ccc(Br)cc2)o1 | / | 1.6 |
| CCCN1CCN(c2nnc(-n3cccc3CN3CCN(c4ccc(F)cc4)CC3)s2)CC1 | / | 2.5 |
| CCOC(=O)c1c(C)oc2ccc(OC(=O)c3cc4ccccc4o3)cc12 | -2 | 0.57 |
| O=S1(=O)N=CN(Cc2ccc(F)cc2Cl)c2ccccc21 | / | 0.54 |
| Clc1ccccc1OCCSc1nnc(-c2cccs2)o1 | -0.5 | 3.1 |
| O=C(CSCCOc1ccccc1)Nc1ccc(Cl)cc1Cl | 0.49 | / |
| Cc1nc(C)c(C(=O)Nc2nc3c(s2)CCCC3)s1 | -0.11 | 0.94 |
| CSc1ccc(CCNC(=O)C2=C(C)C(=O)OC23CCC(C)CC3)cc1 (configuration not stated) | 0.34 | 0.06 |
| Cc1cc(NCc2ccccc2)n2nc(Cc3cccc(F)c3)nc2n1 | / | 0.72 |
| CCc1nnc2c3ccccc3nc(Nc3cc(OC)cc(OC)c3)n12 | -0.61 | 0.6 |
| CCSc1nc2c(c(=O)[nH]1)C(c1ccncc1)C1=C(CCCC1=O)N2 (configuration not stated) | -0.02 | / |
| Cn1cnc2c(C(=O)O)nn(-c3ccc(Cl)cc3)c2c1=O | -2.2 | 0.03 |
| O=C(NCCCN1CCN(c2ccccc2)CC1)Nc1ccc2c(c1)OCCO2 | -1.1 | 0.79 |
| O=C(NCCCn1ccnc1)c1noc2c1CCc1ccccc1-2 | -1.1 | / |
| Nc1nc(N2CCC(Cc3ccccc3)CC2)nc(NCc2ccco2)c1[N+](=O)[O-] | / | -0.28 |
| Cc1ccc(-c2nc(NCCCN(C)C)c3ccccc3n2)cc1 | 0.47 | 0.8 |
| Cc1ccccc1N1OC2C(=O)N(C)C(=O)C2C1c1cccs1 (configuration not stated) | 2.4 | 0.21 |
| COc1ccccc1-c1nc(CSc2nc3ncccc3[nH]2)c(C)o1 | / | 1.4 |
| COc1ccc2c(c1)Cc1sc(NC(=O)c3ccc(Br)cc3)nc1-2 | 18* | -1.7 |
| O=c1c2c(nc3c(-c4ccccc4)c(-c4ccccc4)[nH]n13)CCCC2 | -1.2 | / |

The list goes on (7 carried over from the part before).
| SMILES | CDC25B CDK2 inh | TAR Tat displ |
| --- | --- | --- |
| O=C(NCCCn1ccnc1)c1noc2c1CCc1ccccc1-2 | -1.1 | / |
| Nc1nc(N2CCC(Cc3ccccc3)CC2)nc(NCc2ccco2)c1[N+](=O)[O-] | / | -0.28 |
| Cc1ccc(-c2nc(NCCCN(C)C)c3ccccc3n2)cc1 | 0.47 | 0.8 |
| Cc1ccccc1N1OC2C(=O)N(C)C(=O)C2C1c1cccs1 (configuration not stated) | 2.4 | 0.21 |
| COc1ccccc1-c1nc(CSc2nc3ncccc3[nH]2)c(C)o1 | / | 1.4 |
| COc1ccc2c(c1)Cc1sc(NC(=O)c3ccc(Br)cc3)nc1-2 | 18* | -1.7 |
| O=c1c2c(nc3c(-c4ccccc4)c(-c4ccccc4)[nH]n13)CCCC2 | -1.2 | / |
| COc1ccc(C2CC(=O)C3=C(C2)NC(=O)CC3c2ccc(Cl)cc2)cc1 (configuration not stated) | -0.56 | 2.4 |
| Cc1cc(C(=O)NN)nn1C | -1.3 | / |
| O=C(O)c1ccc2c3c([nH]nc13)-c1ccccc1C2=O | -2 | -8.4 |
| Cc1cc2c(cc1S(=O)(=O)N(C)CCCc1ccco1)OCC(=O)N2 | / | -2.9 |
| Cc1c(Cl)cccc1Nc1nc2ccccc2n2cnnc12 | 0.92 | -0.7 |
| Cc1nc(-c2csc(S(=O)(=O)N(CCc3ccccc3)Cc3ccccc3)c2)no1 | / | 0.11 |
| Cn1c(=O)n(C)c2cc(N3CCOCC3)c(NS(=O)(=O)c3ccc(Cl)cc3)cc21 | -0.71 | -1.4 |
| CC(C)c1ccc(S(=O)(=O)N2CCN(CCn3c(C(F)(F)F)nc4cccnc43)CC2)cc1 | / | 0.2 |
| O=C1c2ccccc2C(Nc2ccc3c(c2)OCCO3)N1Cc1ccccc1Cl (configuration not stated) | 2.8 | 0.78 |
| CC(C)(Sc1ccc(CCN(CCCCC2CCCCC2)C(=O)NC2CCCCC2)cc1)C(=O)O | -1.8 | / |
| O=[N+]([O-])c1cc(C2SCCS2)ccc1SC1CCCCC1 | -1.5 | / |
| C=CCOC(=O)c1sc(N2C(=O)c3oc4ccccc4c(=O)c3C2c2ccc(C)o2)nc1C (configuration not stated) | -0.63 | 3.6 |
| CN1C(C(=O)Nc2sc3c(c2C(N)=O)CCCC3)=CC(c2ccco2)=NS1(=O)=O | -1.4 | 0.79 |
| Cc1csc2sc(S(C)=O)c(C)c12 (configuration not stated) | -1.7 | / |
| CC(C)C1COc2cc3oc(=O)ccc3cc2O1 (configuration not stated) | / | 2.7 |
| CCN(CCNC(=O)C1=C(C)C(=O)OC12CCC(C)CC2)c1ccccc1 (configuration not stated) | -0.64 | 0.47 |
| CCC(C)NS(=O)(=O)c1ccc2c(c1)N(C(C)=O)CCCS2 (configuration not stated) | / | 1.7 |
| COc1ccc(Nc2nc(NCCCO)nc3c2cnn3C)cc1Cl | / | 1.8 |
| Cn1c(=O)c2c(-c3ccc(Br)cc3)n(-c3ccc4c(c3)nc(CO)n4C)cc2n(C)c1=O | 15* | 1.7 |
| O=S(=O)(Nc1cccc(-c2nc(-c3ccccc3)co2)c1)c1ccc(Br)cc1 | / | 1.2 |
| CC1(C)COC(c2ccccc2CO)=N1 | -1.4 | / |
| CC(=O)N1CCSC1C(=O)NN (configuration not stated) | -1.2 | / |
